High-throughput results deposited in PubChem BioAssay by National Center for Advancing Translational Sciences (NCATS).
Marburg entry inh: qHTS for inhibitors of binding or entry into cells for Marburg Virus; Marburg virus pseudotyped entry inhibition, cell reporter; control for the full effect not named in the record; about a third of the inactives were read at about 46 µM; Potency, µM (highest dose often 37.8 µM), for the others: at the highest dose activity change, negative = inhibition, most hits filed as inhibitors; actives 1.8% (n = 300,000); AID 540276, 2011; active = well fitted inhibition curve with a large enough effect; inconclusive = small, poorly fitted or top-dose-only effect, or effect the other way; inactive = flat fitted curve, though single readings scatter; tested in HEK293 cells; about a fifth of its hits are not listed in these tables; further: on the % scale 0 is the no-effect control and ±100 the full control effect; luciferase read-out
StopGo reporter: High Throughput Screening for Foot and Mouth Disease Virus Antivirals; human cells with a luciferase reporter of 2A StopGo recoding; control for the full effect not named in the record; Potency, µM (highest dose often 57.9 µM), for the others: at the highest dose signal change, negative = less light; actives 1.2% (n = 410,000); active = well fitted falling curve with a large enough effect; inconclusive = small, poorly fitted or top-dose-only effect; inactive = no such curve, though single readings can be large or run the other way; tested in HEK293T cells; further: on the % scale 0 is the no-effect control and ±100 the full control effect; nearly all actives have a fitted effect of over 45% in size; luciferase light after 4 h
RE007 growth inh: qHTS Assay for Inhibitors of the HIV-1 protein Vpr; S. pombe RE007 Vpr strain, BacTiter-Glo ATP luminescence, 24 h; control for the full effect not named in the record; Potency, µM (series often up to 92.2 µM), for the others: at the top dose activity change, negative = less growth; actives 0.21% (n = 360,000); AID 651644, 2012; active = well fitted falling curve with a large enough effect; inconclusive = small, poorly fitted or top-dose-only effect; inactive = no such curve, though single readings can be large or run the other way;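 further: on the % scale 0 is the no-effect control and ±100 the full control effect; nearly all actives have a fitted effect of over 50% in size; the assay follows cell death caused by Vpr and the record does not say whether a fall means rescue or toxicity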
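Fission yeast strain RE007, carrying one chromosomally integrated HIV-1 vpr copy, was seeded at OD 0.01 in PMG+AL medium with 23 nL pinned compound. After 24 h at 30 °C and 99% humidity, viability was read by BacTiter-Glo luminescence.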
Lassa entry inh: qHTS for Inhibitors of binding or entry into cells for Lassa Virus; actives 1.2% (n = 300,000); Lassa virus pseudotype entry inhibition, cell reporter; control for the full effect not named in the record; AID 540256, 2011; Potency, µM (top dose mostly 37.9 µM), for inactives: at the top dose activity change, negative = inhibition, hits mostly inhibitors; active means well fitted inhibition curve with a large enough effect; inconclusive means small, poorly fitted or top-dose-only effect, or effect the other way; inactive means flat fitted curve, though single readings scatter; tested in HEK293 cells; further: on the % scale 0 is the no-effect control and ±100 the full control effect; nearly all actives have a fitted effect of over 50% in size; luciferase read-out
NS1 inh: qHTS Assay for Inhibitors of Influenza NS1 Protein Function; S. cerevisiae slowed by influenza A NS1, growth recovery by OD600; Potency, µM (titrated, usually from 46.1 µM), for inactives: top-dose activity, positive = more growth; actives 0.4% (n = 270,000); AID 2326, 2010; further: actives are rising curves; nearly all actives have a fitted effect of over 50% in size
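Growth recovery, yeast-based: influenza A NS1 expressed in S. cerevisiae causes slow growth, and suppressors are detected by OD600. The parent strain without NS1 is used as positive control.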
Cruzain inh noDet: qHTS Assay for Promiscuous and Specific Inhibitors of Cruzain (without detergent); Cruzipain (Trypanosoma cruzi), P25779; purified cruzain, Z-FR-AMC fluorescence, no detergent; Potency, µM, without a hit: max response, negative = inhibition, usual class: inhibitors; actives 2.3% (n = 200,000); active means well fitted curve in the direction sought with a large enough effect; inconclusive means small, poorly fitted or top-dose-only effect, or another doubt; inactive means no such curve, though single readings can be large; an effect the other way counts as inactive or inconclusive;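 further: plate controls were enzyme without inhibitor for no effect and buffer without enzyme for full effect; nearly all actives have a fitted effect of over 40% in size; top concentration of the series not given in the record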
Target sequence (P25779 123-467 limits assumed): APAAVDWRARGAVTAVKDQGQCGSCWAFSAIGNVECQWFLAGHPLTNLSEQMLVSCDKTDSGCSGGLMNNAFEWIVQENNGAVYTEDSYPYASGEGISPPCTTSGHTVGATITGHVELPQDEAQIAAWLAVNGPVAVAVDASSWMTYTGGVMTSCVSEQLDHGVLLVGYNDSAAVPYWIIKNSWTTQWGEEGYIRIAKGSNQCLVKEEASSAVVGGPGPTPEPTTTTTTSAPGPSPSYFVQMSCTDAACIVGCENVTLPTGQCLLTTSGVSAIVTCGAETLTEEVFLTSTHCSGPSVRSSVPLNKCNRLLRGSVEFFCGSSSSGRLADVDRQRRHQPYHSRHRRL
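Purified cruzain at 1.5 nM, pre-incubated 15 min with compound at room temperature in 100 mM sodium acetate pH 5.5, 5 mM DTT, 0.00005% Triton X-100. Reaction started with 2 uM Z-FR-AMC; AMC fluorescence increase over 60 s gives rate.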
SARS PLP yeast: qHTS of Yeast-based Assay for SARS-CoV PLP; S. cerevisiae expressing SARS-CoV PLpro, growth rescue; control for the full effect not named in the record; Potency, µM (top dose mostly 32.9 µM), inactives show at the highest dose activity, positive = growth rescue; actives 0.19% (n = 330,000); AID 485353, 2010; further: 0% is about no effect; nearly all actives have a fitted effect of over 55% in size; growth read by luminescence after 48 h
Cruzain Triton: qHTS Assay for Promiscuous and Specific Inhibitors of Cruzain (with detergent) | purified cruzain, Z-FR-AMC fluorescence, 0.01% Triton | Potency, µM, for the others: max response, negative = inhibition, actives largely listed as inhibitors | actives 0.43% (n = 200,000); active means well fitted curve in the direction sought with a large enough effect; inconclusive means small, poorly fitted or top-dose-only effect, or another doubt; inactive means no such curve, though single readings can be large; an effect the other way counts as inactive or inconclusive;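 further: plate controls were neutral wells for no effect and buffer without enzyme for full effect; nearly all actives have a fitted effect of over 40% in size; top concentration of the series not given in the record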
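Cruzain (1.5 nM) preincubated 15 min at RT with compound in 100 mM sodium acetate pH 5.5, 5 mM DTT, 0.01% Triton X-100. Reaction started with 2 uM Z-FR-AMC; AMC fluorescence (ex 360/em 450 nm) change over 60 s gave rate.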
An asterisk follows results filed as active; ? = inconclusive; . = not tested or not shown; & = joins results of further samples; [ ] = another dose, or the depositor's remark. Unless noted, the call rests on the fitted dose curve; in most records, active means well fitted rising curve with a large enough effect; inconclusive means small, poorly fitted or top-dose-only effect; inactive means no such curve, though single readings can be large or run the other way. Potency means the concentration at half of the fitted maximal effect. This is a random part of the collection. Share with any hit: about 4.6%.

SMILES	Marburg entry inh	StopGo reporter	RE007 growth inh	Lassa entry inh	NS1 inh	Cruzain inh noDet	SARS PLP yeast	Cruzain Triton
COCCCNC(=O)CSc1nc2c(sc(=S)n2-c2cc(Cl)ccc2OC)c(=O)[nH]1	.	-9%	1%	.	2%	.	2%	.
O=C(CSc1ccc(-c2cccnc2)nn1)Nc1ccccc1	-9%	?	0%	-2%	4%	.	0%	.
CC(=O)Nc1ccc2c(c1)ncn2C	3%	-15%	12%	7%	11%	-1%	25%	2.6%
CCOC(=O)N1CCC(N(CCN(C)C)C(=S)Nc2cc(C)cc(C)c2)CC1	?	0%	9%	6%	-1%	12%	0%	-0.9%
O=S(=O)(c1ccccc1)N1N=C(c2ccccc2)CC1c1ccccc1 (stereo not given)	?	-22%	9%	0%	0%	.	-1%	.
CCc1ccc(-c2cc(C(=O)NN3CCOCC3)c3ccccc3n2)cc1	1%	3%	-8%	3%	-8%	?	-3%	-0.4%
COc1ccc(-c2cc(C)no2)cc1S(=O)(=O)N(C)c1cccc(C)c1	.	-7%	13%	.	-8%	.	5%	.
Cc1ccc(NC(=S)NC(=O)/C=C/c2ccco2)c(O)c1	-18%[46.1 µM]	?	-18%	-23%[46.1 µM]	-6%	.	-2%	.
CC1CCCCC1NC(=O)CSc1nnnn1C (stereo not given)	-10%[46.1 µM]	-4%	4%	-6%	.	.	-2%	.
CCOc1cc(/C=C2\N=C(SC(C)C(N)=O)N(c3ccc(OC(F)F)cc3)C2=O)ccc1O (stereo not given)	.	-10%	-5%	.	15%	.	1%	.
CCNC(=O)c1ccc(CSc2ccc(Cl)cc2)cc1	-11%	16%	14%	3%	-24%	1%	-24%	-1.0%
Cc1c(C(=O)NCc2ccc3c(c2)cc(C)n3C)cccc1[N+](=O)[O-]	19%	-4%	3%	-4%	16%	-8%	12%	-4.0%
CC1CCN(CC(=O)N2c3ccccc3CCc3ccccc32)CC1	?	4%	25%	-10%	-4%	0%	-5%	0.2%
C/C(Cn1cnc([N+](=O)[O-])n1)=N\NC(=O)c1ccc(Br)cc1	-1%	-7%	-13%	13%	5%	8%	2%	-3.2%
Cn1c(=O)oc2cc(S(=O)(=O)NCc3ccccn3)ccc21	.	-7%	2%	.	-8%	2%	17%	4.2%
C=CCn1c(O)c(N=NC(=S)Nc2cccc(OC)c2)c2ccccc21	?	-15%	-21%	?	5%	?	20%	-3.0%
O=C(O)c1ccc2c(c1)C(=O)N(c1cccc(C(=O)/C=C/c3ccccc3)c1)C2=O	16%[14.2 µM]	25µM*	-9%	14%	2%	.	0%	.
O=C(Nc1ccc([N+](=O)[O-])cc1)C(=O)Nc1cccc(C(=O)O)c1	.	10µM*	?	.	-2%	.	-1%	.
Cc1ccc(C(C(=O)NC2CCCCC2)N(C)Cc2ccccc2)cc1 (stereo not given)	-2%[46.1 µM]	7%	.	-4%[46.1 µM]	.	-3%	.	-1.7%
O=c1[nH]c(=O)n(Cc2ccccc2)c(O)c1C=Nc1ccc(CN2CCOCC2)cc1	0%	?	-1%	3%	-25%	-10%	5%	-5.4%
COCCCn1c(SCc2cc(=O)[nH]c3ccccc23)nnc1-c1ccco1	-5%[46.1 µM]	-21%	16%	6%	2%	-4%	0%	-1.7%
O=C(NC1CCNCC1)C1CCCCC1	13%[46.1 µM]	17%	13%	11%[46.1 µM]	9%	.	-4%	.
Cc1ccc2nc(NC(=O)c3ccc4ncsc4c3)sc2c1	.	-1%	-6%	.	3%	?	-3%	-23%
CSc1cccc(NC(=O)C(=O)NCc2ccccc2)c1	8%[46.1 µM]	32%	7%	-5%[46.1 µM]	4%	.	1%	.
C=CCN(C(=O)c1csnn1)C(C(=O)NC1CCCC1)c1ccccc1F (stereo not given)	-22%[46.1 µM]	-11%	1%	18%[46.1 µM]	-9%	.	1%	.
CC1CCN(C(=S)NC(=O)c2ccccc2)CC1	29%	-8%	-9%	8%	0%	-15%	5%	1.4%
O=[N+]([O-])c1cccc(S(=O)(=O)Nc2ccc(S(=O)(=O)NCC3CCCO3)cc2)c1 (stereo not given)	10%[46.1 µM]	23%	-6%	23%[46.1 µM]	-7%	.	13%	.
Cc1ccc2cccc(Oc3ccc([N+](=O)[O-])cc3[N+](=O)[O-])c2n1	?	-4%	-1%	-12%	-4%	-8%	-4%	-0.8%
Cc1ccc(Cl)cc1N1CCN(C(=O)c2cc3c(=O)oc4ccccc4c3s2)CC1	4%[46.1 µM]	0%	.	?	.	-1%	.	-0.6%
O=C(Oc1ccnc2cc(Cl)ccc12)N1CCCCCC1	?	-16%	?	?	-151%	-2%	-14%	-9.5%
c1ccc(-c2csc(-n3cccn3)n2)cc1	7%[46.1 µM]	2%	1%	16%	.	.	-2%	.
COc1cccc(C2NC(=O)c3ccccc3O2)c1OCc1ccccc1F (stereo not given)	-5%	-21%	7%	-14%	.	.	-7%	.
CC(=O)Nc1ccc(S(=O)(=O)NCCC(=O)OCC(=O)NCc2ccccc2)cc1	2%[46.1 µM]	-4%	11%	6%	.	.	2%	.
COc1ccc(NC(=O)CCCCC(=O)Nc2ccc(OC)cc2OC)c(OC)c1	?	-5%	19%	?	.	.	.	.
Cc1cc(OCc2cc(C(=O)N3CCCCCC3)no2)cc(C)c1Cl	?	25%	-23%	-15%	-68%	.	-22%	.
Cc1ccc(Cl)cc1N1CCN(C(CC(C)C)c2nnnn2CC2CCCO2)CC1 (stereo not given)	-4%	-29%	-8%	-12%	-4%	?	-7%	-0.4%
CCCCNC(=O)CCn1ccc2cc(S(=O)(=O)N3CCCC3)ccc21	.	7%	-5%	.	1%	.	6%	.
Cn1cc([N+](=O)[O-])c(C(=O)Nc2ccc(-c3nc4ccccc4[nH]3)cc2)n1	?	43%[activator]	-24%	4%	6%	-6%	8%	-6.6%
CCN(C(=O)COC(=O)c1nn(-c2ccccc2)c(=O)c2ccccc12)C1CCS(=O)(=O)C1 (stereo not given)	-2%[46.1 µM]	-21%	-19%	6%	-7%	.	0%	.
CC1(C)CC2CC(C)(CN2C(=O)c2ccc([N+](=O)[O-])cc2)C1 (stereo not given)	-20%	-14%	-24%	-22%	1%	.	0%	.
CC(NC(=O)CN(C)S(=O)(=O)c1ccc2c(c1)c(=O)n(C)c(=O)n2C)c1ccccc1 (stereo not given)	-5%&-5%[46.1 µM]	-12%&-10%	52%	2%[46.1 µM]	1%	12%	10%	1.8%
Cc1cc(C(=O)Nc2ccc(N3CCOCC3)c(Cl)c2)c(C)o1	.	34%[activator]	-15%	.	-7%	.	-1%	.
Cc1cccc(C)c1OCC(=O)Nc1cccc(NC(=O)c2ccco2)c1	?	0%	?	?	-111%	-20%	-80%	-6.4%
CNC(=O)CS(=O)CC(=O)Nc1cc(OC(C)C)c(Cl)cc1Cl (stereo not given)	21%[46.1 µM]	-3%	-18%	-22%[46.1 µM]	5%	.	-2%	.
CSc1nsc(SCC(=O)Nc2ccccc2)n1	?	23%	5%	0%[46.1 µM]	-9%	.	-27%	.
Cc1ccc(S(=O)(=O)Cn2nnnc2CN(Cc2ccco2)Cc2cccs2)cc1	-15%&-15%	-13%	-15%	-12%	-15%	10%	-27%	-8.1%
O=C(O)c1ccc(NC(=S)NC(=O)c2cncc(Br)c2)cc1	.	-43%	-5%	.	9%	.	12%	.
O=C(CNC(=O)c1ccc(Cl)cc1)OC1CCOC1=O (stereo not given)	-2%[46.1 µM]	-16%	4%	-9%	.	.	-1%	.
O=C(NNC(=O)c1cccc2ccccc12)c1ccc(Cl)cc1	?	-5%	9%	-1%[46.1 µM]	.	.	.	.
COc1ccc2c(c1)C(=O)N(c1ccccc1OC)C(=O)C2(C)C	-4%	?	-2%	-11%	-16%	-6%	2%	-1.8%
COc1ccc(OC)c(NC(=O)CSc2nc3ccccc3c(=O)n2CCC(=O)NC2CCCCC2)c1	.	-3%	.	?	.	-3%	.	2.5%
O=C(COc1ccccc1Cl)Nc1ccc2c(c1)OCO2	?	25%	13%	?	-46%	.	-2%	.
O=C(CCc1nc2cccnc2n1Cc1ccccc1)N1CCOCC1	3%	0%	13%	16%	-7%	-11%	9%	4.8%
CCc1ccccc1NC(=O)C(CC)Sc1ncnc2c1sc1ccccc12 (stereo not given)	.	-10%	.	8%[46.1 µM]	.	-11%	.	0.3%
O=C(O)C1C2C=CC(C2)C1C(=O)OCc1ccccc1 (stereo not given)	?	-18%	1%	-1%	8%	9%	-3%	2.4%
CCN(CC)CCCNc1nc(N)c([N+](=O)[O-])c(NCCO)n1	.	-3%	-25%	.	1%	.	0%	.
N/C(=N\OC(=O)CCCOc1ccccc1)c1ccccn1	2%[46.1 µM]	-7%	-4%	6%[46.1 µM]	-4%	.	-1%	.
COc1cccc(-n2c(-c3ccc4[nH]c(C)c(C)c4c3)n[nH]c2=S)c1	?	-30%	-2%	?	3%	.	1%	.
CCc1ccccc1NC(=O)CCN1C(=O)c2ccccc2C1=O	23%[46.1 µM]	-24%	22%	1%	-10%	3%	2%	0.3%
Cc1ccc(CNC(=O)CCc2c(C)nc3c(c(C)nn3-c3ccc(C)cc3)c2C)cc1	.	-10%	-1%	.	10%	.	2%	.
CC1CCCCN1C(=O)Cn1ncc2c3ccccc3n(Cc3ccccc3F)c2c1=O (stereo not given)	10%[46.1 µM]	-23%	.	-22%[46.1 µM]	.	-1%	.	-10%
Oc1ccccc1/C=N/Nc1nc2ccccc2o1	?	5%	-21%	?	-34%	.	-1%	.
CCCN(CCC)c1nc2ccccc2nc1C(C#N)C(=O)OC(C)COC (stereo not given)	?	?	3%	?	?	3%	-7%	-6.7%
